Screening data as filed in PubChem.
Mtb hypoxia rep = inhibitors of hypoxia-regulated fluorescent reporter in Mycobacterium tuberculosis | 300,000 compounds, 0.1% hits | fluorescence inhibition, % (concentration not given with the values) | AID 1159583 | M. tuberculosis hypoxia-regulated fluorescent reporter, fluorescence;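 active means 35 to 45% if threefold the growth effect, above 45% if 1.5-fold the growth effect; inactive means the rest, general growth blockers included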;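 further: wells of about 50 µL received 100 nL stock; 0% = vehicle wells and 100% = reference inhibitor wells; whole bacteria with a GFP reporter of the hypoxia response; strong numbers were not always called active; many hits fall short of the cut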
Autofluor counter = flagged as autofluorescent in microsphere protease counterscreen; compound autofluorescence counterscreen, microsphere flow cytometry; active compounds read high; fluorescence intensity (no concentration beside the values); 360,000 compounds, 3.1% hits; AID 624483;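 active means at least 3 SD above the mean of all compounds, about 16000 in these data; inconclusive means too few beads counted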;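 further: 100 nL of 1 mM stock went into each well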
PrP UTR inh = suppresses PrP 5' UTR mRNA reporter expression; cell-based PrP 5' UTR mRNA reporter, plate reader; inhibition, % (concentration not given with the values); 340,000 compounds, 0.35% hits;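 active means every replicate at 50% or more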;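 further: 0 = median of the neutral control wells; tested in H4 reporter cells; numbers are from one replicate; inactives centre near -14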
BJeLR lethal = BJeLR cell viability loss; BJeLR (HRASV12) viability, CellTiter-Glo ATP luminescence, 48 h; reference of the scale not given here; inhibition, % (concentration not given with the values); 300,000 compounds, 0.17% hits; AID 1554;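 active means replicate mean above 50%; inconclusive means above 50% but judged a plate artefact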;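 further: 50 nL library stock added to about 25 µL; numbers are from one replicate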
RN4220 kill = kills Staphylococcus aureus RN4220. S. aureus RN4220 growth, OD600, 16 h. inhibition, % (test concentration not listed). AID 1259311. 330,000 compounds, 0.33% hits;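 active means z-score of -3 or lower and OD600 up to 0.18 on both plates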;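 further: plate controls were untreated cells for no effect and reference antibiotic for full effect; stock transfer was 100 nL into about 80 µL; one replicate is shown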
ugtP null kill = compounds lethal to S. aureus RN4220 ugtP deletion mutant; OD600 growth, 16 h; some inactives read as strong as hits; AID 1259309; 330,000 compounds, 0.54% hits; growth inhibition, % (concentration not given with the values);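 active means z-score under -3 and OD600 up to 0.15 on both plates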;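 further: plate controls were untreated wells for no effect and antibiotic for full effect; wells of about 80 µL received 100 nL stock; the first replicate is given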
Mtb hypoxia rep growth = second read-out of Mtb hypoxia rep, no call of its own (marks repeat the call); growth inhibition, %; measured here: M. tuberculosis growth (absorbance);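 0% = vehicle and 100% = reference antibiotic; read after six days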
Numbers without * were called inactive; u = inconclusive; x = no result given.

SMILES	Mtb hypoxia rep	Mtb hypoxia rep growth	Autofluor counter	PrP UTR inh	BJeLR lethal	RN4220 kill	ugtP null kill
COc1cc(OC)cc(C(=O)N2CCN(Cc3ccccc3Br)CC2)c1	7	2	4303	85*	1	0.5	8
CC(C)=CCc1c(-c2ccc(O)cc2O)oc2c3c(cc(O)c2c1=O)OC(C)(C)C=C3	x	x	x	x	8	97*	99*
O=C(Nc1ccc(Cl)cc1)ON=C1CCCC1	x	x	9869	-24	-19	12	7
CC(O)C(=O)N/N=C/c1ccccc1C(=O)O (stereo not drawn)	x	x	4983	-8	-6	x	x
CSc1nccn1CC(=O)Nc1ccc(F)cc1	-1	4	2772	-20	1	1.4	-2
COC(=O)C1=C(CSc2nccn2C)NC(=O)NC1c1cc(C)ccc1C (stereo not drawn)	-3	0	9840	x	5	5.9	-3
CCCC1C2C(=O)N(c3cccc(C)c3)C(=O)C2ON1c1ccccc1 (stereo not drawn)	2	3	4339	-7	1	3.3	10
CCC(C)/C(C)=N/NC(=O)CNS(=O)(=O)c1ccc([N+](=O)[O-])cc1 (stereo not drawn)	x	x	5067	-26	-6	x	x
COc1ccc(C(=O)OC/C(O)=C(\C#N)c2nc3ccccc3[nH]2)cc1S(=O)(=O)N1CCOCC1	3	0	2814	0	-5	2.6	-8
Cc1cc(C)cc(N2C(=O)CN(Cc3sccc3C)C2=S)c1	6	10	2496	-32	-11	9.5	16
O=c1c2c(ncn2C2CCCC2)n(Cc2ccccc2)c(=O)n1CCOc1ccc(Br)cc1	3	6	2594	0	2	1.4	-6
Cc1csc(SCC(=O)Nc2ccc(Cl)cn2)n1	-92	-15	4502	-15	7	6.4	1
Cc1cc(C)cc(SCc2noc(C(=O)NC(C)C)c2C(=O)NC(C)C)c1	x	x	3844	-58	-1	x	x
O=C(Cc1ccccc1[N+](=O)[O-])OCN1C(=O)c2ccccc2C1=O	3	4	5088	-30	1	-2.4	7
COc1ccc(CNC(=O)C(C)Sc2nc3ccccc3c(=O)n2CCCN2CCOCC2)cc1 (stereo not drawn)	7	4	5095	-12	-3	8.1	4
COCCCN1C(=O)C(=O)C(=C(O)c2ccc(C)cc2)C1c1ccccc1 (stereo not drawn)	-4	-1	x	x	x	5.0	0
N#Cc1nc(-c2ccccc2)oc1N1CCN(C(=O)c2ccco2)CC1	-8	-3	6041	-14	8	-2.2	-9
O=C(CCc1ccc(S(=O)(=O)NCCc2ccccc2)cc1)Nc1ccc2c(c1)OCO2	-1	11	11413	x	9	-4.6	-9
Cc1cccc(NN=Cc2ccncc2)c1	7	6	x	x	x	1.0	15
CCN(CC)S(=O)(=O)c1cccc(N=Nc2c(O)c3ccccc3oc2=O)c1	11	-4	3770	-53	2	4.4	12
CCNC(=O)CC1C(=O)N(c2cccc(OC)c2)C(=O)N1CCOC (stereo not drawn)	x	x	4893	-9	-4	-2.9	-4
S=C(NCC1CCCO1)Nc1ccc(Cl)cc1Cl (stereo not drawn)	12	12	10272	-18	-8	4.3	6
COc1ccc(OC)c(S(=O)(=O)N2CCC(C(=O)Nc3cccc(C)c3C)CC2)c1	5	1	4434	-28	5	4.2	-2
CCOc1ccc(NC(=O)N2CCN(C(=O)c3ccco3)CC2)cc1	9	-7	4879	-14	-2	-0.1	13
O=C(CCN1C(=O)c2ccccc2C1=O)Nc1ccccc1C(F)(F)F	-2	-7	4070	5	-14	4.4	13

New compounds follow:
SMILES	Mtb hypoxia rep	Mtb hypoxia rep growth	Autofluor counter	PrP UTR inh	BJeLR lethal	RN4220 kill	ugtP null kill
Cn1c(SCC(=O)NCc2ccc(F)cc2)ncc(C(=O)Nc2ccccc2)c1=O	-11	6	5393	-27	7	-1.3	-3
CCN(CC)C(=O)c1cnn(-c2ccccc2)c1NC(=O)c1ccccc1F	3	8	20443*	3	-3	2.3	-5
COc1ccc(C(=O)Nc2ccc3c(c2)OCCO3)cc1[N+](=O)[O-]	4	6	4450	-40	7	0.0	5
CCOC(=O)Cc1csc(NC(=S)NC(=O)C(C)(C)C)n1	10	7	2236	-8	7	4.5	-1
CCOC(=O)C(=O)/C(C#N)=C/Nc1ccc(Cl)cc1	x	x	4858	-9	6	1.2	1
O=C(COC(=O)c1ccco1)c1ccccc1	-3	-2	3896	-43	10	-1.0	11
CC(C)=C(NC(=O)c1ccccc1)C(=O)N/N=C/c1ccc(O)cc1	x	x	10807	-37	-5	x	x
CCOc1ccc(/C=C/C2=CC(C)(C)NC(=S)N2)cc1	x	x	2275	-21	-8	x	x
CSc1nsc(NN=Cc2ccc3c(c2)OCO3)c1C#N	16	12	x	x	x	4.5	6
CNCc1ccccc1OCC(=O)Nc1ccccc1	3	6	8413	-26	7	2.5	-1
COc1ccc(NC(=O)Cn2nnc(-c3ccccc3NC(=O)c3cccs3)n2)cc1	13	-5	2994	-18	20	3.7	-3
CC1(C)OC(=O)C(=CNCC(=O)NCC(=O)O)C(=O)O1	x	x	3287	-10	-5	-2.9	6
Cc1ccc2nsnc2c1NC(=O)c1cccnc1Cl	11	-2	2047	-18	-3	1.8	6
CC(C)=CCc1c(O)ccc(C(=O)Cc2ccccc2)c1O	x	x	4732	-26	0	-3.1	21
CC(NS(=O)(=O)c1cc2c3c(c1)CCC(=O)N3CCC2)c1ccccc1 (stereo not drawn)	3	-3	x	-31	2	6.1	0
Cn1cc(S(=O)(=O)NC(c2ccccc2)c2ccccc2)c(=O)n(C)c1=O	15	7	4663	-14	3	5.6	0
CN(C)c1ccc(N=Nc2ccccc2C(=O)OCC(=O)N2CCCCCC2)cc1	19	4	2172	-16	-6	6.5	-3
COc1ccc(NC(=O)c2cc(-c3ccc(C)cc3O)n[nH]2)c(OC)c1	-5	17	3714	-9	1	-0.9	-2
Fc1ccccc1Cn1c2[n+](c3ccc(C(F)(F)F)cc31)CCCCC2	1	1	4054	-5	2	4.2	7
CCOc1ccc(S(=O)(=O)N2CCN(c3ccc(C)cc3C)CC2)cc1	4	-3	5514	-9	-9	-0.9	9
O=C(Cn1nc(Cl)nc1Cl)c1ccccc1	x	x	3140	-18	-4	x	x
NS(=O)(=O)c1cc2c(cc1Cl)NC(CC1CCCC1)NS2(=O)=O (stereo not drawn)	2	7	5336	-11	3	3.3	3
COc1cc(NC(=S)Nc2ccccn2)cc(OC)c1	18	8	2580	-25	-12	1.5	-3
COCCNc1nc(-c2cc3ccccc3o2)cs1	3	6	2689	-156	-17	7.4	7
Cc1ccc(C(=O)NCCOc2ccc(Cl)cc2)cc1	8	12	3643	-23	-5	6.4	20

Continuation.
SMILES	Mtb hypoxia rep	Mtb hypoxia rep growth	Autofluor counter	PrP UTR inh	BJeLR lethal	RN4220 kill	ugtP null kill
CCCCC(=O)NCCc1cc2c(OC)ccc(OC)c2[nH]c1=O	x	x	4786	-16	1	0.0	3
NS(=O)(=O)c1ccc(CCNC(=O)c2ccc(NS(=O)(=O)c3ccc4[nH]c(=O)[nH]c4c3)cc2)cc1	x	x	5833	-6	11	x	x
COc1ccc2cc(S(=O)(=O)N3CCCC3)ccc2c1	14	10	6697	-4	2	5.2	-10
Cc1ccc(Nc2nc(N)nc(CSC(=S)N3CCN(c4ccccc4)CC3)n2)cc1	12	-3	7913	-13	-23	-4.9	17
CSc1ccc(CN(C)CC(=O)Nc2ccccc2C(=O)NC2CC2)cc1	1	8	3628	-16	x	1.7	4
Cc1ccc(S(=O)(=O)NCC2CCC(C(=O)NCc3ccccn3)CC2)cc1 (stereo not drawn)	8	9	3791	-26	-12	6.7	7
Cc1nnc(SCC(=O)c2ccc([N+](=O)[O-])cc2)s1	21	10	4313	-14	-4	3.3	-2
CN(CCc1ccccn1)C(=O)CCC1CCCN(C(=O)CN2CCCCCC2)C1 (stereo not drawn)	8	-6	4081	-12	6	3.8	2
CC1SC(c2cccc(Cl)c2)NC1=O (stereo not drawn)	4	8	24188*	-6	-2	1.6	-8
Cc1cc2cccc(C)c2nc1SCC(=O)NCC1CCCO1 (stereo not drawn)	0	9	4040	-15	-5	2.8	-5
O=C(OCCCN=C1NS(=O)(=O)c2ccccc21)c1ccccc1F	-7	3	20170*	-7	-7	1.1	-2
COCCN(Cc1cc2c(C)cc(C)cc2nc1Cl)C(=O)c1ccccc1F	14	2	4048	-10	-4	1.6	8
O=c1c(-c2ccccc2)c(O)cc(-c2ccncc2)n1-c1ccc(Cl)cc1	2	5	5083	-14	-2	8.1	17
Oc1ccccc1C1=Nc2ncnn2C(c2ccc(F)cc2)C1 (stereo not drawn)	x	x	2465	-12	1	1.0	-11
Cc1ccc(C(=O)NN2CCOCC2)cc1[N+](=O)[O-]	-8	-6	6563	-19	-3	1.4	3
CN1CCN(NC(=O)c2ccc(F)cc2)CC1	x	x	2206	-6	5	-3.8	-5
Cc1ccc2c(c1)c1c3n2CCN(CCC(=O)O)C3CCC1 (stereo not drawn)	-4	10	3042	-13	-6	2.1	2
O=C(Nc1ccon1)c1ccc(Br)s1	-6	-2	5508	-16	1	-3.3	5
COc1ccc(CN(CC(O)COCc2ccccc2)S(=O)(=O)c2ccccc2Br)cc1 (stereo not drawn)	3	1	2893	-10	x	6.2	9
Cn1c(SCc2cccc(Br)c2)nc2c1c(=O)[nH]c(=O)n2C	7	10	u	-25	1	5.4	8
CC1CN(C(C)CO)C(=O)c2cccc(N(C)C)c2OC1CN(C)C(=O)Nc1ccc(C(F)(F)F)cc1 (stereo not drawn)	-3	-2	x	x	x	0.5	-1
COC(=O)[C@]1(CC(C)C)NC(c2ccc(-c3ccc(F)cc3)cc2)C2C(=O)N(C)C(=O)C21 (stereo partly drawn)	8	-1	x	x	x	-4.9	-3
CCc1ccc(NC(=O)N(CCCN2CCOCC2)Cc2cccs2)cc1	-3	-5	5728	-36	4	4.1	-6
Cc1c(C(=O)Nc2cccc(Cl)c2)cn2c(nc3ccccc32)c1C#N	7	0	1952	-1	-8	0.3	11
COc1ccc(NC(=O)N2CCCC2C(=O)NCc2cccs2)cc1 (stereo not drawn)	5	0	5359	-9	-12	1.2	8

(next part)
SMILES	Mtb hypoxia rep	Mtb hypoxia rep growth	Autofluor counter	PrP UTR inh	BJeLR lethal	RN4220 kill	ugtP null kill
CC(=O)c1ccccc1NC(=O)COC(=O)C1CCCN1S(=O)(=O)c1ccccc1F (stereo not drawn)	-3	3	9057	-12	x	2.3	4
Cc1cccc2sc(NC(=O)CCNS(=O)(=O)c3cccc4nonc34)nc12	-5	9	3213	-5	x	2.9	-13
Oc1cccc(NC(=S)Nc2ccccc2)c1	4	2	3987	-9	-9	3.8	8
CCN(CC)c1c([N+](=O)[O-])c(=O)n(CC)c2ccccc12	3	-1	5339	x	5	5.9	-2
CCOC1OC(=O)C(Cl)=C1Nc1ccc(C)cc1 (stereo not drawn)	9	2	2437	-6	3	-0.4	-1
CCCc1nnc(NC(=O)c2ccc(N3C(=O)C4C5C=CC(C5)C4C3=O)cc2)s1 (stereo not drawn)	-4	5	7688	-1	0	2.5	-1
O=C(N/C(=C/c1ccc(Cl)cc1)C(=O)N1CCCCC1)c1ccco1	5	-7	6827	-3	3	-5.6	-7
COc1ccc(NS(=O)(=O)c2ccc(C(=O)NCC3(N4CCOCC4)CCCCC3)cc2)cc1	-3	9	3843	-5	x	-1.2	-4
O=C(O)C1CN(c2ncccc2[N+](=O)[O-])C1	4	6	5129	-13	-4	4.4	2
COc1ccc(C=NNC(=O)c2ccc(Br)cc2)cc1CN1CCOCC1	7	2	x	x	x	1.1	6
COC(=O)C1(Cc2ccccc2)NC(c2ccccc2C)C2C(=O)N(c3ccc4c(c3)OCO4)C(=O)C21 (stereo not drawn)	10	6	2985	-20	6	1.7	4
